# Bioassay records: PubChem BioAssay, several laboratories
# RecA splice inh: Mtb RecA intein splicing inhibitors, primary screen, biochemical, fluorescence, HTS. cell-free RecA intein splicing. inhibition, %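 (about 9 µM by stock and volumes)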. 0.75% of 290,000 active; in the data active means inhibition above about 30%; inconclusive means no clear call, values can overlap the other calls;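 further: 0% = vehicle wells and 100% = reference inhibitor control wells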
# Target sequence (P9WHJ3 whole entry, looked up, canonical isoform): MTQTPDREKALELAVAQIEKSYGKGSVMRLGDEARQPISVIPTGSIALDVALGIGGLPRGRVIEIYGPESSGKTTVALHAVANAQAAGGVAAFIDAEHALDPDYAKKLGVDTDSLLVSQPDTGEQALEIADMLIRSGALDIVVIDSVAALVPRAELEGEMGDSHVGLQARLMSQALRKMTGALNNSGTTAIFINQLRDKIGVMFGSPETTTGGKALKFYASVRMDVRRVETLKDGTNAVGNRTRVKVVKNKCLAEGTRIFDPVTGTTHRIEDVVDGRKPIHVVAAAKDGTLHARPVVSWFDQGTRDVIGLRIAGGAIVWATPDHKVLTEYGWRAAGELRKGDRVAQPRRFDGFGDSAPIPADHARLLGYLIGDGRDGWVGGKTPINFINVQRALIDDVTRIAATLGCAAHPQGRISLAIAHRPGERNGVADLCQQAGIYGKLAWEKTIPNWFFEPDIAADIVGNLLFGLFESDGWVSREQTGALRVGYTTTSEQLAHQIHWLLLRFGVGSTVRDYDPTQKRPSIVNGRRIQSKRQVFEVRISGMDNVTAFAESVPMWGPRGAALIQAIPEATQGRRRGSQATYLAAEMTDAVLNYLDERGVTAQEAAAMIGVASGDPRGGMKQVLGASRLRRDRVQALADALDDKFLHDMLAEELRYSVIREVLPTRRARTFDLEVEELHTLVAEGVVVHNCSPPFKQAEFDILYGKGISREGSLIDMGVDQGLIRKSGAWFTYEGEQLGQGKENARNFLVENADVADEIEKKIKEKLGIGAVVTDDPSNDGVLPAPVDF
# YopH PTP inh: YopH tyrosine phosphatase inhibitors, primary screen, biochemical, fluorescence Ex485/Em525; YopH tyrosine phosphatase [Yersinia enterocolitica]; inhibition, %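 (about 10 µM by stock and volumes)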; 0.16% of 140,000 active; AID 898, 2007;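 active means inhibition of 50% or more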;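 further: controls were vehicle for no effect and minimum signal wells for full effect; inactives centre near -20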
# Mtb betalactam: beta-lactam sensitization of Mtb H37Rv, H37Rv. M. tuberculosis H37Rv growth with meropenem, percent inhibition; hits of this screen are not shown here. inhibition, % at 25 µM. 0.27% of 330,000 active. AID 434955, 2010;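 active means about 74% or more and at least 40 points above the plate without the antibiotic, then above 30% in a dose series; inconclusive means first-round hits that could not be retested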;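 further: growth measured after seven days incubation then overnight dye step; 0% = bacteria only wells and 100% = bacteria with antibiotic; twin plates without the antibiotic show which effects depend on it; some results filed as inactive read as strong as hits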
# Arbovirus anti: antivirals against arbovirus infection, primary screen, cell-based, full library, 10K replicate subset. arbovirus infection cell-based antiviral screen. inhibition, % at 10 µM. 0.37% of 200,000 active. AID 1251, 2008;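 active means inhibition from about 30%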;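 further: bluetongue infection of BSR cells; cell survival read as ATP light after 72 h; 0% = infected wells without compound and 100% = uninfected wells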
# Mtb H37Rv: M. tuberculosis H37Rv growth inhibitors, H37Rv strain (AID 1626); inhibition, % at 10 µM, or IC50 in µM where a hit was titrated; 0.95% of 220,000 active; M. tuberculosis H37Rv growth inhibition; higher % means a stronger effect;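 active means confirmed in a dose series; inconclusive means inhibition above 80% but not taken into the dose series; inactive means below 80% or under 30% at every dose of the series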;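 further: bacteria incubated seven days before Alamar blue readout; 0% = bacteria only wells and 100% = bacteria with antibiotic wells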
# Arbovirus anti repeat: further read-out of Arbovirus anti, marked with its call; inhibition, %; measured here: 10K subset replicate screen; many hits read low in the repeat;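 first of two repeat runs on a subset; 0% = infected and 100% = uninfected wells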
# Starred values were filed as active, the others as inactive; ? = inconclusive; . = not tested or not shown.
SMILES,RecA splice inh,YopH PTP inh,Mtb betalactam,Arbovirus anti,Mtb H37Rv,others
CC(=O)NC1=NN(c2ccccc2)C(=O)C1,82*,-20,-4,-6,-8%,
O=C(O)/C=C\C(=O)Nc1ccc(Oc2ccccc2)cc1,.,-40,53,8,-5%,
CCN1CCc2c(sc(NC(=O)c3ccc(S(=O)(=O)N(C)c4ccccc4)cc3)c2C(=O)NC)C1,-0.6,.,-2,.,.,
Cc1cccc(C)c1OCCCCc1c(C)n[nH]c1C,6.4,-12,98,7,79%,
COc1ccc2sc3ccccc3c(=O)c2c1OC,-17,-17,32,-2,.,
COC(=O)C1C(=O)c2c([nH]c(C(=O)OCCOC(C)C)c2C)CC1C (configuration not stated),2.6,-11,-3,7,4%,
O=C(O)c1cccc(Nc2nc(N3CCOCC3)nc(N3CCOCC3)n2)c1,-1.9,18,-6,3,-12%,
CS(=O)(=O)c1ccc2nc(NC(=O)Nc3cccc(Cl)c3)sc2c1,1.0,-38,1,2,3%,
Oc1csc(Cc2nc(-c3ccc(Br)cc3)cs2)n1,6.5,.,4,0,38%,
Cc1nc(NC(=O)CSc2ccc(-c3nc4ccccc4[nH]3)cn2)sc1C,-2.8,-32,0,-12,0%,
CN(C)C(CNC(=O)c1ccc([N+](=O)[O-])cc1Cl)c1ccco1 (configuration not stated),-2.7,.,2,.,.,
COc1ccc(N2CCN(C3CCCN(C(=O)c4cccc(C)n4)C3)CC2)cc1 (configuration not stated),-4.2,.,-7,.,.,
CC1(C)C(=O)N(c2ccccc2F)C(=O)c2ccccc21,1.5,.,-2,.,.,
CCCCN1C(=O)NC(c2cccc([N+](=O)[O-])c2)C(C(=O)OCC)=C1C (configuration not stated),1.6,.,0,.,-10%,
O=C(CN1CCN(c2ccccc2)CC1)Nc1cccc(C(F)(F)F)c1,0.7,-4,-14,-3,-3%,
CCN(CC)C(=O)c1ccc(NC(=O)COc2ccc([N+](=O)[O-])cc2Cl)cc1,0.7,-21,0,6,1%,
CC(=O)c1c(C)[nH]c(C(=O)CSc2nc3ccccc3c(=O)n2CCCO)c1C,3.2,.,4,6,5%,
COc1cc(CCC(=O)OCC(N)=O)cc(OC)c1OC,2.8,.,-12,7,0%,
Cc1ccc2c(c1)CC1(CN2C)C(=O)OC2(CCCCC2)OC1=O,0.9,-6,-3,-6,-1%,
C=CCNC(=O)Nc1ccc(F)c(Cl)c1,0.1,.,4,-1,4%,
O=C1/C(=N\S(=O)(=O)c2cccs2)C([n+]2cccc(Cc3ccccc3)c2)=C([O-])c2ccccc21,5.0,.,4,.,-16%,
O=C1c2ccccc2-c2onc3ccc(NCc4ccco4)c1c23,17,11,22,-23,12%,
COc1cccc(CNS(=O)(=O)c2cc3c(cc2C)n(C)c(=O)c(=O)n3C)c1,2.0,.,7,.,.,
Cn1c(CSc2nc3ccccc3s2)nnc1SCC(=O)NCCN1CCOCC1,0.2,.,-8,7,-14%,Arbovirus anti repeat=7
CC(c1ccccc1)C(CC(=O)O)C(=O)NC1CCCCC1 (configuration not stated),0.4,-3,-3,1,-11%,Arbovirus anti repeat=3
CCNC(=S)N(CCc1c(C)[nH]c2ccc(OC)cc12)Cc1cccnc1,-2.8,.,-6,.,.,
Cc1ccc(NC(=S)Nc2ccc3cn[nH]c3c2)c(C)c1,7.6,.,-5,8,-4%,
CCC(CC)C(=O)NC12CC3CC(CC(C3)C1)C2,0.2,-42,9,-1,-2%,
CNC(=O)CCn1nc(-c2ccc(C)cc2)c2ccccc2c1=O,-1.3,.,-5,.,.,
Cc1ccccc1NS(=O)(=O)c1ccc(N2CCCC2=O)cc1,.,-40,-1,-16,1%,
C/C(=N/NS(=O)(=O)c1ccc(C(C)C)cc1)c1ccncc1,1.6,.,3,.,.,
CCOc1ccc(NC(=O)CC(NCc2ccccn2)C(=O)O)cc1 (configuration not stated),-17,.,-17,6,-4%,
O=C(c1ccc(Cl)cc1)C1CCN(C(=O)NC2CCCCC2)CC1,3.5,-24,24,-1,3%,
CC(C)(C)NC(=O)COC(=O)c1ccc(S(=O)(=O)N2CCCCCC2)cc1,-0.7,-45,-9,3,-16%,
CN(Cc1nc2ccccc2n1C)S(C)(=O)=O,0.9,19,-6,0,2%,
CN(C)C(=S)NC(=O)C(c1ccccc1)c1ccccc1,0.6,.,-6,0,2%,

# Random excerpt: 4 compounds from above.
SMILES,RecA splice inh,YopH PTP inh,Mtb betalactam,Arbovirus anti,Mtb H37Rv,others
O=C(O)/C=C\C(=O)Nc1ccc(Oc2ccccc2)cc1,.,-40,53,8,-5%,
Cc1cccc(C)c1OCCCCc1c(C)n[nH]c1C,6.4,-12,98,7,79%,
CS(=O)(=O)c1ccc2nc(NC(=O)Nc3cccc(Cl)c3)sc2c1,1.0,-38,1,2,3%,
CCN(CC)C(=O)c1ccc(NC(=O)COc2ccc([N+](=O)[O-])cc2Cl)cc1,0.7,-21,0,6,1%,

# New compounds follow:
SMILES,RecA splice inh,YopH PTP inh,Mtb betalactam,Arbovirus anti,Mtb H37Rv,others
CCc1nn(CCCC(=O)N2CCC(C)CC2)c(=O)c2cc3occc3n12,-0.6,.,-2,.,.,
c1csc(C2Nc3cccc4cccc(c34)N2)c1,16,-36,-3,6,-12%,
COc1cccc2c1C(=O)CC1C2CCC2CC(=O)CCC21C (configuration not stated),2.6,.,-15,.,.,
O=C(NCCOc1ccccc1)c1cccc(S(=O)(=O)NCc2ccccc2)c1,6.0,.,-10,.,.,
Cn1cccc1C(=O)OCc1ccc(F)cc1,2.4,.,-10,.,.,
COCn1c(C(O)c2ccccc2)cc2ccccc21 (configuration not stated),-0.4,.,7,.,.,
O=C(COc1ncnc2ccccc12)c1ccc2c(c1)OCCO2,-2.0,-38,-16,8,-6%,
Cc1c(CC(C)C)nc(N)c(C#N)c1-c1ccccc1,-0.9,17,7,-18,5%,
Cc1ccc(-n2[nH]c(C)c(C=Nc3ccc(C)cn3)c2=O)cc1,0.1,-30,-6,-2,0%,
CN1CCN(c2ccc(NC(=O)c3ccc(Oc4ccccc4)cc3)cc2)CC1,2.4,.,3,.,.,
Cn1cnnc1SCC(=O)n1c2ccccc2c2ccccc21,0.4,-52,-3,0,-5%,
CC1(CCc2ccccc2)NC(=O)N(CC(=O)N2CC(=O)Nc3ccccc32)C1=O (configuration not stated),0.7,.,-4,.,-3%,

# The list goes on; it opens with the 7 that closed the last part.
SMILES,RecA splice inh,YopH PTP inh,Mtb betalactam,Arbovirus anti,Mtb H37Rv,others
COCn1c(C(O)c2ccccc2)cc2ccccc21 (configuration not stated),-0.4,.,7,.,.,
O=C(COc1ncnc2ccccc12)c1ccc2c(c1)OCCO2,-2.0,-38,-16,8,-6%,
Cc1c(CC(C)C)nc(N)c(C#N)c1-c1ccccc1,-0.9,17,7,-18,5%,
Cc1ccc(-n2[nH]c(C)c(C=Nc3ccc(C)cn3)c2=O)cc1,0.1,-30,-6,-2,0%,
CN1CCN(c2ccc(NC(=O)c3ccc(Oc4ccccc4)cc3)cc2)CC1,2.4,.,3,.,.,
Cn1cnnc1SCC(=O)n1c2ccccc2c2ccccc21,0.4,-52,-3,0,-5%,
CC1(CCc2ccccc2)NC(=O)N(CC(=O)N2CC(=O)Nc3ccccc32)C1=O (configuration not stated),0.7,.,-4,.,-3%,
OC(CCNCCc1c[nH]c2ccccc12)C(F)(F)Cl (configuration not stated),-1.6,.,-10,16,-5%,
CCn1c(SCC(=O)c2cc(C)n(CC3CCCO3)c2C)nc2ccccc21 (configuration not stated),2.5,-3,2,4,4%,
NC(=O)CSc1nnc(COc2ccc3ccccc3c2)o1,0.7,.,99,.,.,
Cc1c(Cl)cccc1NC(=O)CSCc1cc(=O)[nH][nH]1,85*,6,-9,-2,-1%,
COC(=O)c1ccc(OCC2c3cc(OC)c(OC)cc3CCN2C(C)=O)cc1 (configuration not stated),-2.1,.,-2,14,9%,
COC(=O)CSc1nnc(-c2cccnc2)n1-c1cccc(OC)c1,1.6,-21,-3,15,-6%,
CCn1c(COc2ccc(C)cc2)nnc1SCC(=O)C(C)(C)C,-2.1,-32,1,5,7%,
C/C(CCC(C)C)=N\Nc1cc(C)c2ccccc2n1,.,.,-18,-7,6%,
Cn1c(=O)c2c(ncn2CC(=O)N/N=C/c2cn[nH]c2-c2ccc(F)cc2)n(C)c1=O,-2.6,.,-1,14,2%,
Cc1c(-c2ccccc2)oc2c(C(=O)N3CCN(c4ccccc4F)CC3)cccc2c1=O,2.3,-24,4,-7,5%,
CC(C)(C)c1ccc(COn2ccnc2)cc1,-1.9,.,11,1,6%,
O=C(CSc1ccccc1)Nc1cccnc1,0.0,1,-3,8,10%,
CCN1C(C)=C(C)S/C1=C1\SC(=S)N(N)C1=O,-5.5,.,-5,2,3%,
CC1=C(C)CS(=O)N(c2ccc(S(N)(=O)=O)cc2)C1 (configuration not stated),2.8,18,3,4,3%,
COc1ccc(S(=O)(=O)N2CCC(C(=O)N[C@@H](C)C(=O)NCc3ccncc3)CC2)cc1,0.2,.,6,.,.,
CCCCn1c(O)c(C(CC)=NCc2cc(OC)cc(OC)c2)c(=O)[nH]c1=O,-1.1,-8,-13,7,1%,
CCNc1nc(Oc2ccc(C#N)cc2)cc(C(F)(F)F)n1,1.9,.,3,13,7%,
c1ccc(Oc2cccc(Oc3ccccc3)n2)cc1,2.4,.,4,.,.,
COCCSc1nc2c(c(=O)[nH]c(=O)n2C)n1CCC(C)C,1.7,-43,-5,1,4%,Arbovirus anti repeat=2
N/C(=N\OC(=O)c1ccc([N+](=O)[O-])cc1Cl)c1ccccn1,-3.0,.,9,.,.,
c1coc(-c2nnc(-c3cccs3)o2)c1,.,-26,-20,6,-2%,
Cc1ccc(S(=O)(=O)NNC(=S)Nc2cccc(C)c2C)cc1,-1.9,.,12,.,53%,
COc1cc(NC(=S)Nc2ccc(N(C)C(C)=O)cc2)cc(OC)c1,-0.3,.,-1,-2,68%,
Cc1c(/C=C2\SC(=O)N(CC(=O)Nc3ccc4c(c3)OCO4)C2=O)c2ccccc2n1C,-1.6,-38,8,-28,3%,

# Among those listed so far, these have a thiophene ring, fused or not:
SMILES,RecA splice inh,YopH PTP inh,Mtb betalactam,Arbovirus anti,Mtb H37Rv,others
CCN1CCc2c(sc(NC(=O)c3ccc(S(=O)(=O)N(C)c4ccccc4)cc3)c2C(=O)NC)C1,-0.6,.,-2,.,.,
O=C1/C(=N\S(=O)(=O)c2cccs2)C([n+]2cccc(Cc3ccccc3)c2)=C([O-])c2ccccc21,5.0,.,4,.,-16%,
c1csc(C2Nc3cccc4cccc(c34)N2)c1,16,-36,-3,6,-12%,
c1coc(-c2nnc(-c3cccs3)o2)c1,.,-26,-20,6,-2%,

# Other results.
SMILES,RecA splice inh,YopH PTP inh,Mtb betalactam,Arbovirus anti,Mtb H37Rv,others
O=C(O)c1ccc2c(c1)ncn2C1CCCCCC1,-0.5,-18,?,0,-5%,
Cc1csc(N(C(=O)CCNC(=O)c2ccc([N+](=O)[O-])cc2)c2ccccc2)n1,1.3,-22,-1,-4,1%,
C=C1C(=O)O[C@H]2C[C@@H](C)[C@@H]3C=CC(=O)[C@@]3(C)C[C@H]12,4.4,.,96,.,.,
COC(=O)c1cc2sccc2n1CC(=O)N1CCCc2ccccc21,-2.0,-28,6,11,8%,
COC(=O)CCCC1=CC2=CC(=O)C(C)(OC(=O)c3cnc4ccccc4n3)C(=O)C2=CO1 (configuration not stated),-6.5,.,1,.,-9%,
O=C(Nc1cccnc1)c1ccc(Cl)cc1[N+](=O)[O-],-3.1,.,0,1,2%,
COc1nccnc1NS(=O)(=O)c1ccc(NC(=S)NC(=O)c2ccccc2F)cc1,-0.9,-13,8,-4,-4%,
O=C1CNC(=O)c2c(nc3n2CCC3)N1,-6.3,-48,5,-7,-5%,
Cc1cc(C(=O)NNC(=O)Nc2cccc(C(F)(F)F)c2)no1,-0.3,.,-2,-4,12%,
Cc1ccc(C(=O)Nc2cccc(C(F)(F)F)c2)cc1NC(=O)c1csc(-c2ccncc2)n1,1.3,.,9,.,0%,
O=C(NCc1ccccc1)NCC12CC3CC(CC(C3)C1)C2,-3.6,.,-7,-2,3%,
O=C1CCN(C(=S)NCCc2ccccc2)CC1,-1.0,.,-1,9,5%,
O=C(NC(c1ccccc1)c1ccccc1)C1CCCC1,0.7,-26,-8,-7,-9%,
Cc1csc(SCc2nnc(-c3ccc(Cl)cc3)o2)n1,4.3,14,0,-5,9%,
C=CCn1c(SCC#N)nc2sc(CC)cc2c1=O,-0.2,.,-4,0,7%,
Cc1ccc(-n2[nH]c(=O)c(-c3ccccn3)c2C)cc1,.,.,46,4,?,

# Not all compounds are listed, so the mix of outcomes need not match the whole.
